# From PubChem BioAssay
# TRPML1 inh = human mucolipin-1 channel inhibition | TRPML1-inducible cells, Ca2+ dye fluorescence, FDSS; stronger effect = lower value; inhibition of EC80 agonist-evoked calcium signal | hit rate 0.02% among 390,000 | Q9GZU1 | activity change, negative = inhibition, % (test concentration not listed); in the data active means activity change below about -50%; inconclusive means about -30% to -50%; inactive means above about -30%;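 further: stimulus is agonist 54-4 at its EC80 concentration; on the % scale 0 is the no-effect control and ±100 the full control effect; compound concentration not given in the record; the text of the record puts the active cut at -80%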
# Target sequence (Q9GZU1 whole entry, looked up): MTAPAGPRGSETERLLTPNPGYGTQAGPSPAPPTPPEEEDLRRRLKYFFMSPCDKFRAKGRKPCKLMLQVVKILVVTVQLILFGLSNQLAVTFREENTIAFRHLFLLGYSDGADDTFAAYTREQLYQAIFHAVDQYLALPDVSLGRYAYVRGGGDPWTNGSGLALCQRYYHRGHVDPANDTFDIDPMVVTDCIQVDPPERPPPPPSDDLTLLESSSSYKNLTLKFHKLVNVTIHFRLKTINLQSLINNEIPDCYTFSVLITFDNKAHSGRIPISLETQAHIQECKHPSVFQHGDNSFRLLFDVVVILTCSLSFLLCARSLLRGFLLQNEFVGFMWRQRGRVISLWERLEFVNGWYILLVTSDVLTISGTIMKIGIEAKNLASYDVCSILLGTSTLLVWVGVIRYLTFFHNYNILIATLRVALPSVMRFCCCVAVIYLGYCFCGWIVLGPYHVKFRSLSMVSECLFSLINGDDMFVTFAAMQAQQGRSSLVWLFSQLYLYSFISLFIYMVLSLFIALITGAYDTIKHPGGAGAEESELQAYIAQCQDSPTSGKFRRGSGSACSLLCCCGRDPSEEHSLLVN
#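 Calcium fluorescence in TRPML1-DL cells induced overnight with Tet: a 110 s read after compound pin addition, then a 110 s antagonist read after challenge with 54-4 at 4 uM final (EC80).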
# PINK1 modulator = PINK1 expression modulation; PINK1 immunofluorescence, high-content cytometry, 24 h; Potency, µM (series often up to 76.6 µM), without a hit: at the highest dose activation (PINK1 increase), actives largely listed as activators; AID 624263; hit rate 0.2% among 410,000; active = well fitted activation curve with a large enough effect; inconclusive = small, poorly fitted or top-dose-only effect; inactive = flat fitted curve, though single readings scatter; cell line not stated here;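 further: potency means the concentration at half of the fitted maximal effect; % of control where 0% means no effect; nearly all actives have a fitted effect of over 65% in size; a mitochondrial uncoupler was the plate control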
#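 Cells are seeded, rested 12 hours, then given compound at five concentrations or DMSO for 24 hours. After fixation, blocking and antibody staining, PINK1 amount and mitochondrial localization are scored; CCCP serves as control.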
# CtBP-E1A blk = blocks the CtBP interaction with E1A | AlphaScreen GST-E1A/His-CtBP binding, 1536-well; stronger effect = lower value; control for the full effect not named in the record | activity change, % (no concentration beside the values) | hit rate 0.49% among 340,000; in the data active means activity change below about -65%; inconclusive means about -30% to -65%; inactive means above about -30%; further: on the % scale 0 is the no-effect control and ±100 the full control effect; compound concentration not given in the record
#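 Homogeneous bead-based format: GST-tagged E1A captured on glutathione donor beads, His-tagged CtBP on nickel acceptor beads; compounds precede bead addition by 2 h at 37 °C.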
# TRPML1 ag = human mucolipin-1 channel agonism; Q9GZU1; TRPML1-expressing cells, Ca2+ dye fluorescence, FDSS; host cell line not named in the record; reference of the full effect not given here; activation, % (concentration not given with the values); hit rate 0.12% among 410,000; in the data active = activation above about 50%; inconclusive = about 30% to 50%; inactive = below about 30%; further: 0% is about no effect; the text of the record puts the active cut at 80%
#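 Kinetic FDSS Ca2+ read in Tet-induced TRPML1-DL cells (ABD Ca8 dye plus quencher, 45-90 min RT loading): baseline, then compound, then 110 s agonist window; EC80 agonist 54-4 at 4uM final added afterwards for a 110 s antagonist window.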
# Six1-Eya2 inh = Six1/Eya2 interaction inhibition | Q15475+O00167 | AlphaScreen GST-Six1/His-Eya2 binding, biochemical; stronger effect = lower value; control for the full effect not named in the record | activity change, % (test concentration not listed) | hit rate 0.56% among 360,000 | AID 651725; in the data active = activity change below about -65%; inconclusive = about -30% to -65%; inactive = above about -30%; further: on the % scale 0 is the no-effect control and ±100 the full control effect; compound concentration not given in the record
#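 AlphaScreen with GST-Six1 and His-Eya2 (5X mix: 250 nM and 500 nM), glutathione donor and nickel acceptor beads; buffer 50 mM Tris pH 8.0, 300 mM NaCl, 1 mM TCEP; 1 h at 37 C in the dark.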
# D2 ag = human D2 receptor agonism in beta-arrestin assay. P14416. DiscoveRx PathHunter D2 beta-arrestin, luminescence, 90 min; 100% = 57 uM dopamine signal. activation, % (no concentration beside the values). hit rate 0.084% among 360,000. AID 624465; in the data active = activation above about 40%; inconclusive = about 15% to 40%; inactive = below about 15%; further: compound concentration not given in the record; the text of the record calls up to 30% inactive
# Target sequence (P14416 whole entry, looked up): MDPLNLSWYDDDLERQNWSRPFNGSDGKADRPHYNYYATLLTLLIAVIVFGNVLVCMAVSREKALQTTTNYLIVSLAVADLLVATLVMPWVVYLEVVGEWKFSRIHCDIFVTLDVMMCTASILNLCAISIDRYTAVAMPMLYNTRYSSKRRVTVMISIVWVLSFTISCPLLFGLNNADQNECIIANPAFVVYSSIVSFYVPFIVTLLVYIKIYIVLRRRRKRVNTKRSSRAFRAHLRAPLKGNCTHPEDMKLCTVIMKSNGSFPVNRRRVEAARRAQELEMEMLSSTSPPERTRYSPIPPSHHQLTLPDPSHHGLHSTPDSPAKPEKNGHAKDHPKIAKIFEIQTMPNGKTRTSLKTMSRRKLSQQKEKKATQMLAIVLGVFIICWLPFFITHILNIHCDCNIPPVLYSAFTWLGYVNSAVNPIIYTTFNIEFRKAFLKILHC
#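 DiscoveRx PathHunter D2 beta-arrestin cells (2,100/well) attached overnight, then compound-stimulated 90 min at 37 C in HBSS/10 mM HEPES/0.1% Tween-20 buffer; beta-galactosidase complementation read by luminescence after 1 h at ambient temperature. Dopamine 57 uM final (EC100) as control.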
# * marks the source's active call; other numbers are inactive results; ? = inconclusive; . = no result given; & = joins results of further samples; [ ] = another dose, or the depositor's remark.
SMILES,TRPML1 inh,PINK1 modulator,CtBP-E1A blk,TRPML1 ag,Six1-Eya2 inh,D2 ag
CC(=O)Nc1ccc(NC(=O)C(C)OC(=O)CCc2c[nH]c3ccccc23)cc1 (stereo not drawn),-16,-0.1%,4,0.4,-11,-4.8
Cc1ccc(Nc2nc(NCCCN3CCOCC3)nc(N)c2[N+](=O)[O-])cc1C,4,0.4%,1,0.3,-13,-6.7
Cc1ccc2c(CN3CCC(C)CC3)cc(=O)oc2c1C,35,0.8%,5,0.7,7,-2.6
Cc1cc(C)cc(OCC(=O)N/N=C/c2ccncc2)c1,-11,0.7%,6,-0.5,7,1.6
CN(C)S(=O)(=O)c1ccc(-c2csc(N/N=C/c3ccc(O)cc3)n2)cc1,1,-3.5%,-8,-1.0,-11,?
O=C1NC[C@@H](CCCCN2CCN(CCc3ccc(O)cc3)C(=O)C2=O)N(CCc2ccc(O)cc2)C1=O,.,-0.3%,-8,-0.4,-4,.
Cc1cc(Br)cn2c(Cc3ccccc3)c(-c3ccc(F)cc3)nc12,1,3.1%,8,0.1,0,-5.0
COc1ccc(CC(=O)NNC(=O)COc2ccc(C)cc2)cc1S(=O)(=O)N1CCOCC1,-2,2.4%,10,1.0,-6,-3.1
CCN(C(=O)CSc1nnc(-c2ccncc2)o1)c1ccccc1,-18,-0.2%,-8,0.9,-5,-2.6
COC(=O)c1c(-c2ccc(Cl)cc2)noc1N1CCN(c2ccc(C(C)=O)cc2)CC1,0,3.1%,.,-1.0,.,.
COc1ccccc1CN1C2CCCC1CC(NC(=O)/C=C/c1ccccc1)C2 (stereo not drawn),15,2.3%,.,-0.7,4,-0.4
COc1cccc(NC(=O)c2cnc(SC)nc2)c1,3,0.1%,0,0.6,15,-5.9
CCN(CC)CCCNC(=O)CNC(=O)c1nn(-c2ccc(OC)c(OC)c2)c(=O)c2ccccc12,-12,-1.6%,0,-0.8,5,-1.7
CCCOc1ccc(N2C(=O)CC(N(CCOC34CC5CC(CC(C5)C3)C4)C(C)=O)C2=O)cc1 (stereo not drawn),-4,0.1%,-8,-0.8,-3,-1.7
O=C(NNC(=O)c1ccccc1F)c1cccc(Cl)c1,2,-1.2%[38.3 µM],5,0.2,5,-1.7
O=C(NCC1CC1)c1cccs1,.,-0.2%,0,-0.6,5,-5.3
COc1ccccc1CNc1nc(-c2ccco2)nn1S(C)(=O)=O,-11,-0.1%,.,1.1,.,.
COC(=O)c1ccccc1NC(=O)CNCCc1ccc(OC)c(OC)c1,-9,-0.4%,1,-0.5,4,2.8
Cc1ccc(Cn2c(SCC(=O)NCC3CCCO3)nc3c(sc4ccccc43)c2=O)cc1 (stereo not drawn),-2,3.0%,14,0.3,1,-1.7
Cc1cn([C@H]2C[C@H](O)[C@@H](CCC(=O)NCC(c3ccccc3)c3ccccc3)O2)c(=O)[nH]c1=O,4,0.0%,6,-0.7,-2,-3.5
Cc1ccc(S(=O)(=O)NC(C)C(c2cccs2)N2CCN(C)CC2)cc1 (stereo not drawn),-18,.,-15,0.2,-8,-2.4
Cc1cc(C)nc(NC(=O)c2c(-c3c(Cl)cccc3Cl)noc2C)n1,-12,-0.9%,-2,-0.4,-2,0.4
Cc1ccc(C(C)C)c(OCC(=O)OCC(=O)NC2CCS(=O)(=O)C2)c1 (stereo not drawn),-11,-2.0%,-23,0.0,6,-6.8
CCc1cccc(CC)c1N(COC)C(=O)Cn1nnc2ccccc21,37,-1.9%,4,1.0,7,-1.5
C=CCOc1ccc(/C(CC)=N/O)c(OC)c1,-7,0.3%,-1,-1.3,5,-0.8

# Record cards, from the list above. Order of screens: TRPML1 inh, PINK1 modulator, CtBP-E1A blk, TRPML1 ag, Six1-Eya2 inh, D2 ag
# CN(C)S(=O)(=O)c1ccc(-c2csc(N/N=C/c3ccc(O)cc3)n2)cc1 is listed with 1, -3.5%, -8, -1.0, -11, ?
# O=C(NNC(=O)c1ccccc1F)c1cccc(Cl)c1 is listed with 2, -1.2%[38.3 µM], 5, 0.2, 5, -1.7

# Additional compounds
SMILES,TRPML1 inh,PINK1 modulator,CtBP-E1A blk,TRPML1 ag,Six1-Eya2 inh,D2 ag
COc1cc(OC)cc(-n2nnnc2SCC(=O)Nc2ccc(C(C)=O)cc2)c1,-2,2.1%,4,-0.1,3,-0.3
Cc1cc(Nc2ccc(O)cc2)n2c(nc3ccccc32)c1C#N,0,-0.2%,-13,0.0,4,3.8
O=C(COC(=O)CNC(=O)c1cccc(OC(F)F)c1)NNC(=O)c1ccccc1,9,-0.3%,4,0.0,-2,-1.2
CC(C)(C)OC(=O)[C@H]1[C@H](c2ccc([N+](=O)[O-])cc2)C2(C(=O)c3ccccc3C2=O)C2c3ccccc3C=NN21 (stereo partly drawn),-15,0.3%,-9,0.9,-23,3.1
Cc1ccc(C(=O)N2CCN(Cc3cc(=O)n4nc(-c5ccccc5)sc4n3)CC2)cc1,-14,2.0%,.,-0.3,.,.
Cn1nc(SCc2ccccc2)c(=O)[nH]c1=O,-6,1.2%,-1,0.0,-4,-1.0
O=C1CC(NS(=O)(=O)c2cccs2)CN1c1ccc(F)cc1 (stereo not drawn),3,0.0%,6,-0.4,-4,-0.1
OCCn1c(SCCOc2ccccc2F)nc2ccccc21,-5,-1.2%,6,3.0,2,-0.2
Cc1cc(NC(=O)CCN2CCCCC2)ccc1Br,-1,-0.1%,8,-0.6,0,-5.0
CC(CNC(=O)CCC(=O)N1CCOc2ccc(Cl)cc21)c1ccccc1 (stereo not drawn),0,3.1%,-14,1.5,-17,-2.6
Cc1[nH]c2ccccc2c1C(=O)C(C)OC(=O)c1ccc([N+](=O)[O-])o1 (stereo not drawn),5,2.5%,-2,0.0,-25,14
CCCCCn1c(-c2cccc(C)c2)nc2ccccc21,63,12%,.,6.3,.,.
COc1ccc(NC(=O)CSc2nc3sc(C)cc3c(=O)n2C)cc1,7,6.2%,8,-0.6,-1,1.1
C/C(=N\O)C1(C)N(O)C(C)(C)C(c2ccc(Br)cc2)=[N+]1[O-] (stereo not drawn),8,0.4%,-3,-0.4,4,2.6
O=S(=O)(c1cccc(F)c1)N1CCN(Cc2ccc3c(c2)OCO3)CC1,-5,-1.8%,-8,2.7,-6,1.7
CCOc1ccc(NC(=O)Cn2nnc(C(=O)NCc3ccccc3OC)c2N)cc1,23,0.7%,-1,-0.3,2,-0.3
COc1ccc(Br)c(C(=O)NCC2CCCCC2)c1,-5,3.0%,3,-0.4,2,-3.4
COC(=O)c1ccccc1NC(=S)NC(=O)COc1ccc(C)cc1,8,3.4%,2,0.8,5,-6.9
CCC1(CC)Cc2ccccc2-c2nc(NCCCO)[nH]c(=O)c21,22,0.2%,-2,1.1,4,-3.6
CCS(=O)(=O)Nc1ccc(NC(C)=O)cc1,2,0.5%,3,-0.5,3,-0.3
CCCCCn1c(NCc2ccc(OC)cc2)nc2ccccc21,36,?,.,1.8,.,.
COc1ccc(C(=O)NCC(=O)OC2CCCCC2=O)cc1 (stereo not drawn),-18,-1.2%,4,-0.1,6,-2.7
O=C(NNC(=O)c1ccc(S(=O)(=O)N2CCCC2)cc1)c1ccc(Br)cc1,5,5.5%,3,-0.2,-4,3.8
CCCS(=O)(=O)c1c(S(=O)(=O)CCC)c2ccc(C(C)=O)cn2c1C(=O)OC,20,3.1%,-1,0.2,-7,-1.9
Cc1ccc(NC(=O)c2cc(C)n(-c3ccccc3)c2C)cc1,18,15%,-15,2.6,-25,-1.7

# Five of the compounds above, bar-delimited.
Compound | TRPML1 inh | PINK1 modulator | CtBP-E1A blk | TRPML1 ag | Six1-Eya2 inh | D2 ag
COC(=O)c1c(-c2ccc(Cl)cc2)noc1N1CCN(c2ccc(C(C)=O)cc2)CC1 | 0 | 3.1% | . | -1.0 | . | .
COc1ccccc1CN1C2CCCC1CC(NC(=O)/C=C/c1ccccc1)C2 (stereo not drawn) | 15 | 2.3% | . | -0.7 | 4 | -0.4
COc1cccc(NC(=O)c2cnc(SC)nc2)c1 | 3 | 0.1% | 0 | 0.6 | 15 | -5.9
CCN(CC)CCCNC(=O)CNC(=O)c1nn(-c2ccc(OC)c(OC)c2)c(=O)c2ccccc12 | -12 | -1.6% | 0 | -0.8 | 5 | -1.7
CCCOc1ccc(N2C(=O)CC(N(CCOC34CC5CC(CC(C5)C3)C4)C(C)=O)C2=O)cc1 (stereo not drawn) | -4 | 0.1% | -8 | -0.8 | -3 | -1.7

# Further compounds.
SMILES,TRPML1 inh,PINK1 modulator,CtBP-E1A blk,TRPML1 ag,Six1-Eya2 inh,D2 ag
COCCCNC(=S)NC1CC2CCCC(C1)N2Cc1cccs1 (stereo not drawn),5,.,9,0.1,-3,-1.7
CCC1(CC)Cc2ccccc2-c2nc3ccccc3c(=O)n21,-13,4.4%,10,2.7,5,10
COc1ccc(CNC(=O)C2=CC(c3ccc(OC)cc3)=NS(=O)(=O)N2C)cc1,-2,2.4%,-3,-0.3,-3,-0.1
COc1ccccc1C(NC(=O)CC(C)C)c1c(O)ccc2ccccc12 (stereo not drawn),14,0.9%,-2,2.3,-3,-4.1
O=C(c1ccc(S(=O)(=O)c2ccccc2Cl)c([N+](=O)[O-])c1)N1CCCCCC1,37,16%,-14,1.4,-11,11
CC(C)C[C@H]1COCCS(=O)(=O)N1Cc1cccc(Cl)c1,8,2.1%,12,-0.3,17,-4.4
Cc1cc(C)cc(-n2c(SCC(=O)N3CCc4ccccc43)nc3c([nH]c4ccccc43)c2=O)c1,58,-2.8%,.,1.7,.,.
COc1ccc(Cl)cc1NC(=O)CCCn1c(=O)c2cccn2c2cccnc21,38&-5,0.4%&5.7%,-8,1.8&0.1,?,-3.7
CCOc1ccccc1N1CC(C(=O)N(CC)C2CCS(=O)(=O)C2)CC1=O (stereo not drawn),7,-0.6%,1,-0.6,1,5.0
COc1ccc(-c2nn3c(COc4ccccc4)nnc3s2)cc1OC,-3,-3.7%,-3,1.1,3,-0.9
COc1ccccc1-c1nc(-c2ccccc2)nc(N2CCN(C)CC2)c1C#N,12,-1.7%,0,0.6,-14,-2.7
CCc1ccccc1NC(=O)CN1CCN(C(=O)CN2C(=O)NC3(CCCCC3C)C2=O)CC1 (stereo not drawn),16,-0.2%,2,-0.4,2,-2.4
COc1ccc(Cl)cc1NC(=O)N(C)CCc1c(C)nn(C)c1C,-3,0.4%,.,-0.9,.,.
CCCS(=O)(=O)c1snnc1C,-11,1.6%,16,-0.4,-1,-4.7
CC1C(=O)NN=C1C(=O)N/N=C\c1ccc(O)cc1O (stereo not drawn),5,1.5%,-11,-0.1,-92*,-5.6
CCCn1cc(S(=O)(=O)c2cc(C)ccc2C)c(=O)c2cc(F)c(N3CCCCCC3)cc21,-14,?,.,13,.,.
CCCc1cc(-n2ccnc2C)n2c(nc3ccccc32)c1C#N,9,1.0%,4,1.0,-1,4.0

# Copied from the list.
# Entry of COc1ccc(Br)c(C(=O)NCC2CCCCC2)c1 under D2 ag: -3.4
# Entry of CCCCCn1c(NCc2ccc(OC)cc2)nc2ccccc21 under TRPML1 inh: 36
# Entry of CCc1cccc(CC)c1N(COC)C(=O)Cn1nnc2ccccc21 under CtBP-E1A blk: 4
